Pol eta inh = DNA polymerase eta (human) inhibition; recombinant Pol eta, fluorescent DNA replication assay; 390,000 tested, 1.2% active; Potency, µM (top dose mostly 114 µM), inactives show at the top dose activity change, negative = inhibition, actives largely listed as inhibitors; Q9Y253; AID 588591; further: potency means the concentration at half of the fitted maximal effect; on the % scale 0 is the no-effect control and ±100 the full control effect
Target sequence (Q9Y253 whole entry, looked up): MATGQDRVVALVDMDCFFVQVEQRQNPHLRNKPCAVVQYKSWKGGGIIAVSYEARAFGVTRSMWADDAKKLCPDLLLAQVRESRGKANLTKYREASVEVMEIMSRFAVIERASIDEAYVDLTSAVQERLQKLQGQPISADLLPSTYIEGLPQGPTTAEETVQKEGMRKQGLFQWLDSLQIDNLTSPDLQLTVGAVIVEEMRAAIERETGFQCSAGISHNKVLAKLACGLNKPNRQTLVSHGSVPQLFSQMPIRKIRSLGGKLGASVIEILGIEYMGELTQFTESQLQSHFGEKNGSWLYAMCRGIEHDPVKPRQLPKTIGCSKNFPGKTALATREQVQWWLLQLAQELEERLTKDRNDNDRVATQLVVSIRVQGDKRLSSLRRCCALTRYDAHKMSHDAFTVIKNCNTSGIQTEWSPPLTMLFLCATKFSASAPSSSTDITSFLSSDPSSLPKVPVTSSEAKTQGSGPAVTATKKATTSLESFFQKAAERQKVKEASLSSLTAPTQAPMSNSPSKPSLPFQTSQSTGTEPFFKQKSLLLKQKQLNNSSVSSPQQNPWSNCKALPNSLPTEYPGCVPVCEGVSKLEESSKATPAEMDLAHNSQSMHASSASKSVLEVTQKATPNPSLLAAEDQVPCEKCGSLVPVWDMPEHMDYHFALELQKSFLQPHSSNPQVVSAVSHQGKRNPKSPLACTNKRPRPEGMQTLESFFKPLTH
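Pol eta (10 nM) was preincubated with compounds for 15 min at room temperature, after which fluorescent replication substrate (50 nM final) was added to start the reaction. Fluorescence was read kinetically at 0 and 10 min.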
Pin1 inh = blocks the human prolyl isomerase Pin1 | Q13526 | Potency, µM (highest dose often 115 µM), for inactives: at the top dose activity, negative = inhibition, usual class: inhibitors | 390,000 tested, 0.009% active | Pin1 FP peptide displacement, HiFluor488, 10 min; active means well fitted inhibition curve with a large enough effect in the polarisation, with a control signal flat, not every such curve was filed as active; inconclusive means small, poorly fitted or top-dose-only effect, or effect the other way, or a change in a side signal; inactive means no such curve, though single readings can be large or run the other way; the % refers to the polarisation; further: potency means the concentration at half of the fitted maximal effect; on the % scale 0 is the no-effect control and ±100 the full control effect
Target sequence (Q13526 whole entry, looked up): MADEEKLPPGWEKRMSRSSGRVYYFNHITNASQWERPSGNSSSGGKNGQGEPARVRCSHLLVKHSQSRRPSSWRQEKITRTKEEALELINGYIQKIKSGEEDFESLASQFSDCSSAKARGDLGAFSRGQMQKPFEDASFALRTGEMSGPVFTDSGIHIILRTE
G9a block = inhibitors of human histone lysine methyltransferase G9a; Q96KQ7; G9a H3K9 monomethylation, AlphaScreen, 2 h; Potency, µM (highest dose often 102 µM), for inactives: top-dose activity, negative = inhibition, actives largely listed as inhibitors; 350,000 tested, 8.8% active; AID 504332; further: potency means the concentration at half of the fitted maximal effect; on the % scale 0 is the no-effect control and ±100 the full control effect; nearly all actives have a fitted effect of over 75% in size
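Methyltransferase reactions run at room temperature for 2 h (20 nM enzyme, 500 nM biotin-H3K9 peptide, 20 uM SAM) after a 15 min compound preincubation; product detected by AlphaScreen beads and anti-H3K9me1 antibody.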
JMJD2A Tudor = JMJD2A Tudor domain (human) inhibition | O75164 | AlphaScreen JMJD2A-Tudor / H3K4me3 peptide binding | AID 504339 | 390,000 tested, 4.4% active | Potency, µM (titrated, usually from 114 µM), inactives show top-dose activity change, negative = inhibition, most hits filed as inhibitors; further: potency means the concentration at half of the fitted maximal effect; on the % scale 0 is the no-effect control and ±100 the full control effect; nearly all actives have a fitted effect of over 50% in size
GLS inhibitor = inhibitors of human glutaminase (GLS); O94925; GLS enzymatic activity, qHTS titration; 410,000 tested, 0.21% active; Potency, µM (highest dose often 45.5 µM), without a hit: at the highest dose activity change, negative = inhibition, actives largely listed as inhibitors; AID 624170; further: potency means the concentration at half of the fitted maximal effect; on the % scale 0 is the no-effect control and ±100 the full control effect
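Read-out is an Amplex red fluorescence increase coupled through glutamate oxidase and HRP, measured before and after 30 min room-temperature incubation. hKGA is in 45 mM KH2PO4 (pH 8.2) with 0.02% Tween-20; glutamine added as 1mM solution.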
HP1b binding inh = blocks HP1-beta chromodomain binding to methylated histone tails; P83916; AlphaScreen HP1-beta / biotin-H3K9me3 peptide binding; Potency, µM (series often up to 114 µM), inactives show top-dose activity change, negative = inhibition, usual class: inhibitors; 390,000 tested, 0.56% active; further: potency means the concentration at half of the fitted maximal effect; nearly all actives have a fitted effect of over 70% in size; inactives centre near 23
Target sequence (P83916 whole entry, looked up): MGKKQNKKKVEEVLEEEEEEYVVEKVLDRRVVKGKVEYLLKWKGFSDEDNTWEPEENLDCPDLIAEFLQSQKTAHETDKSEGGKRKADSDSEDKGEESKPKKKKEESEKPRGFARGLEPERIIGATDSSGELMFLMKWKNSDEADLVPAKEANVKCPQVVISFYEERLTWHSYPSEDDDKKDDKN
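AlphaScreen: HP1-beta (50 nM) preformed 30 min with biotin-H3(1-18)K9me3 peptide (50 nM) in PBS pH 7.4, 0.01% Tween-20. Compound added for 30 min at RT, then streptavidin donor/nickel chelate acceptor beads (10 ug/mL) for 30 min.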
PGK inhibitor = T. brucei PGK inhibition; Potency, µM (titrated, usually from 57.5 µM), for inactives: at the highest dose activity change, negative = inhibition, hits mostly inhibitors; 380,000 tested, 0.043% active; PGK/GAPDH coupled, Kinase-Glo luminescence, 60 min; further: potency means the concentration at half of the fitted maximal effect; on the % scale 0 is the no-effect control and ±100 the full control effect; nearly all actives have a fitted effect of over 60% in size
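Luminescent ATP detection (Kinase-Glo Plus) follows a 60-minute room-temperature incubation, with wells lacking PGK as controls. Buffer: 100 mM TEA (pH 7.6), 5 mM MgCl2, 0.01% Tween-20. Coupling enzyme GAPDH (100 nM final) supplies unstable 1,3-BPG in-well.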
PI4K2A inh = PI4K2A (human) kinase inhibition. Q9BTU6. purified PI4K2A, ADP-Glo luminescence, 1 h; active compounds read low. activity change, negative = inhibition, % at 76.9 µM. 420,000 tested, 0.13% active; in the data active means activity change below about -50%; inconclusive means mostly about -30% to -49%;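 further: -100% = wells without enzyme as full effect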
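PI4K2A activity was measured by ADP-Glo luminescence: enzyme (4 ug/mL stock) and phosphatidylinositol (1.2 mM stock) in Tris pH 7.5/MgCl2/EGTA/Triton X-100 buffer were reacted with ATP (300 microM stock) for one hour at ambient temperature.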
Active calls of the source: *; i = inactive; ? = inconclusive; nt = no result given; & = joins results of further samples; [ ] = remark or other dose. Unless noted, the call rests on the fitted dose curve; in most records, active means well fitted curve in the direction sought with a large enough effect; inconclusive means small, poorly fitted or top-dose-only effect, or another doubt; inactive means no such curve, though single readings can be large; an effect the other way counts as inactive or inconclusive. Not all compounds are listed; the hit share may differ from the screen's.

#1 COc1ccc(C(=O)Oc2cc(-c3ccc(OC)c(OC)c3)cc(=O)c3c(C)oc(C)c23)cc1
#2 CN(Cc1ccccc1)C(=O)C1CCCN(Cc2cccc(Cl)c2)C1 (configuration not stated)
#3 COc1ccc(CCNC(=O)Cn2nnc(-c3ccc(N4CCOCC4)cc3)n2)cc1OC
#4 Cc1cccc(C(=O)Nc2nnc(S(=O)(=O)N3CCCc4ccccc43)s2)c1
#5 O=C(NC(=S)Nc1ccccc1N1CCCCC1)c1cccs1
#6 CC1=NN(C(=O)c2ccc(Br)cc2)C(O)(c2ccccc2)C1 (configuration not stated)
#7 CCN(c1ccc(NC(=O)COC(=O)C(C)N=C2NS(=O)(=O)c3ccccc32)cc1)C(C)C (configuration not stated)
#8 Cc1cccc(C)c1Nc1c(-c2ccc(Cl)s2)nc2ncccn12
compound no.	1	2	3	4	5	6	7	8
Pol eta inh	-6%	-10%	-13%	?	-24%	-23%	-15%	-16%
Pin1 inh	?	-5%	-7%	-2%	2%	1%	4%	?
G9a block	?	13µM*	-7%[59 µM]	?	-28%[59 µM]	-10%	7.1µM*	?
JMJD2A Tudor	?	-7%	-4%	?	?	?	?	?
GLS inhibitor	-3%	-2%&-3%	22%	3%	17%	6%	28%	6%
HP1b binding inh	-1%	16%	20%	-6%	?	8%	?	-13%
PGK inhibitor	-5%	i	3%	4%	-4%	5%	9%	-5%
PI4K2A inh	0	-3	0	2	-2	1	2	-1

#9 COc1cccc(/C=C/C(=O)OCC(=O)Nc2nnc(-c3ccccc3)o2)c1
#10 Cc1cc(N/N=C/c2ccc(N(C)C)cc2)c2ccccc2n1
#11 Cc1cccc(N2C(N)=C(C#N)C(C#N)(C#N)C2c2ccccc2)c1 (configuration not stated)
#12 NS(=O)(=O)c1ccc(Nc2ccc([N+](=O)[O-])c3nonc23)cc1
#13 CC1Cc2ccccc2N1CC(=O)NC(=O)NCc1ccccc1 (configuration not stated)
#14 COC(=O)c1cc2occc2n1Cc1ccc(F)cc1Cl
#15 CCOC(=O)N1CCN(C(=O)CSc2ccc3nnc(-c4ccccn4)n3n2)CC1
#16 CCc1ccc(/C=C(/C#N)c2nc(-c3ccc(C)cc3)cs2)cc1
compound no.	9	10	11	12	13	14	15	16
Pol eta inh	-15%	?	-21%	-17%	-14%	-1%	-12%	-11%
Pin1 inh	-4%	3%	0%	?	-3%	15%	0%	19%
G9a block	6%	56µM*	?	?	?	-46%[59 µM]	3%	158%[activator][59 µM]
JMJD2A Tudor	-30%	32%	?	-21%	?	-2%	-33%	94%[activator]
GLS inhibitor	2%	7%	4%	4%	12%	-5%	-6%	6%
HP1b binding inh	16%	58%[activator]	-30%	-1%	-8%	?	46%[activator]	123%[activator]
PGK inhibitor	-12%	-6%	-5%	-22%	-2%	i	-9%	9%
PI4K2A inh	-1	3	-4	-15	7	1	3	0

#17 O=C(NCCCn1ccnc1)C(=O)NCC1OCCCN1S(=O)(=O)c1ccc(Cl)cc1 (configuration not stated)
#18 O=C1CC(N2CCC(c3nc4ccccc4[nH]3)CC2)C(=O)N1Cc1ccccc1 (configuration not stated)
#19 Cc1cccc(C(=O)N2c3nc(-c4ccco4)nn3C3(CCCCC3)[C@@H]3CCCC[C@@H]32)c1
#20 CC(C)C(c1nnnn1Cc1ccccc1)N(Cc1ccco1)Cc1cccs1 (configuration not stated)
#21 Cc1[nH]n(-c2ccccc2)c(=O)c1/C=N/NC(=O)c1ccoc1C
#22 O=C(NCCCn1ccnc1)C(=O)NCC1OCCN1S(=O)(=O)c1ccc(Br)cc1 (configuration not stated)
#23 Cc1nc2ccc(NC(=O)NCc3ccco3)cc2s1
#24 CCSCCOC(=O)C1=C(C)NC(=O)NC1c1cc(OC)ccc1OC (configuration not stated)
compound no.	17	18	19	20	21	22	23	24
Pol eta inh	-15%	9%	-12%	1%	-13%	-10%	-2%	4%
Pin1 inh	-2%	-1%	25%	32%[activator]	3%	4%	1%	?
G9a block	1%[59 µM]	?	?	?	-9%[59 µM]	10%	-22%[12.7 µM]	-20%
JMJD2A Tudor	-12%	-13%	-32%	-7%	-20%	1%	-9%	-22%
GLS inhibitor	9%	-2%	-6%	0%	44%[activator]	-8%	2%	-2%
HP1b binding inh	16%	29%	6%	35%	41%[activator]	38%[activator]	5%	57%[activator]
PGK inhibitor	-4%	-1%	9%	-5%	-7%	2%	-8%	-6%
PI4K2A inh	2	-6	2	1	-11	4	3	-4

#25 CCCCCCCCCCS(=O)(=O)N/N=C/c1ccc([N+](=O)[O-])cc1
#26 O=C(Cn1c(=O)n(Cc2ccco2)c(=O)c2ccccc21)Nc1cccc(F)c1
#27 Cc1ccccc1-n1c(SCC(=O)N2CCCC2)nnc1-c1ccccn1
#28 COc1ccc(C(=O)N(CN2CCCC2=O)c2cc(C)on2)cc1OC
#29 Nc1c(-c2ccc(Cl)cc2)cnn1C1CCS(=O)(=O)C1 (configuration not stated)
#30 CCOc1ccc(NC(=O)CSc2nnc(Cc3cccn3C)n2-c2ccc(F)cc2)cc1
#31 Cn1ccnc1SCC(=O)Nc1ccc(Oc2ccccc2)cc1
#32 S=c1[nH]c(-c2cccs2)cn1-c1ccccc1
compound no.	25	26	27	28	29	30	31	32
Pol eta inh	-16%	-11%	1%	-11%	-4%	-28%	-8%	0%
Pin1 inh	-6%	0%	6%	-6%	-2%	-5%	-5%	1%
G9a block	-33%[2.33 µM]	28%[59 µM]	-4%	-4%[59 µM]	6%	45µM*	50µM*	2.5µM*
JMJD2A Tudor	?	-11%	?	-21%	-19%	?	?	?
GLS inhibitor	-4%	1%	-6%	-2%	4%	5%	14%	38%[activator]
HP1b binding inh	-40%	60%[activator]	34%	18%	7%	?	-14%	-34%
PGK inhibitor	i	-10%	-3%	-4%	i	-5%	10%	5%
PI4K2A inh	-1	-1	1	2	1	-1	4	4

#33 O=S(=O)(Nc1cccnc1)c1ccc2c(c1)OCCO2
#34 COC(=O)c1ccc(-c2noc(CN(C)CCC3CCCCO3)n2)cc1 (configuration not stated)
#35 COCCNC(=O)c1sc2ncn(CC(=O)N3CCCCC3)c(=O)c2c1C
#36 COC(=O)c1c(NC(=O)CCCOc2ccccc2)sc2c1CCC(C)C2 (configuration not stated)
#37 N#C/C(=C/c1ccc(Br)s1)C(=O)NCCc1c[nH]c2ccccc12
#38 COc1ccccc1/C=C1\SC(=O)N(CC(=O)NCCCn2ccnc2)C1=O
#39 O=C(COc1ccccc1/C=C1\SC(=O)NC1=O)Nc1ccc(F)cc1
#40 COc1cc(OC)cc(-c2cc3ncccc3cn2)c1
compound no.	33	34	35	36	37	38	39	40
Pol eta inh	4%	-9%	-4%	-21%	-11%	-9%	71µM*	-7%
Pin1 inh	-4%	-2%	-4%	5%	-6%	2%	6%	-8%
G9a block	-10%	0.28µM*	6%[59 µM]	45%[59 µM]	-23%[59 µM]	nt	?	8%[0.501 µM]
JMJD2A Tudor	-6%	-10%	?	37%[activator]	-28%	?	-16%	?
GLS inhibitor	-4%	-2%	?	0%	10%	-3%	0%	2%
HP1b binding inh	30%	12%	-11%	61%[activator]	?	21%	4%	26%
PGK inhibitor	-1%	-5%	i	10%	i	7%	-1%	-13%
PI4K2A inh	-2	-9	-5	-2	1	-8	-2	-9

#41 CNC(=O)/C(C#N)=C/c1ccc(-c2ccccc2[N+](=O)[O-])o1
#42 CC(C)CCOc1ccc(/C=C2\CCn3c2nc2cc(C(=O)O)ccc2c3=O)cc1
#43 CC(=O)c1c(C)[nH]c(C(=O)OCC(=O)c2c(N)n(CC(C)C)c(=O)n(C)c2=O)c1C
#44 CCOc1ccc(NC(=O)CSc2ccc(-c3ccccn3)nn2)cc1
#45 O=C(/C=C/c1ccccc1[N+](=O)[O-])OCC(=O)c1ccccc1
#46 COc1c(C)cc(NS(=O)(=O)c2ccc3c(c2)OCCO3)cc1C
#47 S=c1nc[nH]c2c1ncn2C1CCCC1
#48 Cc1ccc(C2=NN3C(=O)c4ccccc4C3C2)cc1 (configuration not stated)
compound no.	41	42	43	44	45	46	47	48
Pol eta inh	12%	?	-13%	-7%	-11%	nt	-9%	6%
Pin1 inh	-1%	-9%	6%	5%	?	0%	-5%	-1%
G9a block	19%	50µM*	0%[59 µM]	8%	4%[59 µM]	-15%[59 µM]	?	1%
JMJD2A Tudor	-15%	1%	-16%	?	-23%	-22%	?	-8%
GLS inhibitor	14%	-22%	0%	0%	-6%	7%	-9%	2%
HP1b binding inh	1%	73%[activator]	13%	26%	-6%	38%	25%	22%
PGK inhibitor	-6%	0%	-13%	-7%	i	nt	-3%	-6%
PI4K2A inh	4	-4	-2	2	0	4	-5	-7

Four compounds picked at random from the list so far, as already listed:
#41 CNC(=O)/C(C#N)=C/c1ccc(-c2ccccc2[N+](=O)[O-])o1
#42 CC(C)CCOc1ccc(/C=C2\CCn3c2nc2cc(C(=O)O)ccc2c3=O)cc1
#44 CCOc1ccc(NC(=O)CSc2ccc(-c3ccccn3)nn2)cc1
#48 Cc1ccc(C2=NN3C(=O)c4ccccc4C3C2)cc1 (configuration not stated)
compound no.	41	42	44	48
Pol eta inh	12%	?	-7%	6%
Pin1 inh	-1%	-9%	5%	-1%
G9a block	19%	50µM*	8%	1%
JMJD2A Tudor	-15%	1%	?	-8%
GLS inhibitor	14%	-22%	0%	2%
HP1b binding inh	1%	73%[activator]	26%	22%
PGK inhibitor	-6%	0%	-7%	-6%
PI4K2A inh	4	-4	2	-7

(listing goes on)
#49 CNC(=S)N1CCn2cccc2C1c1ccc(F)cc1 (configuration not stated)
#50 O=C(O)c1ccc(N/N=C/C=C/c2ccccc2[N+](=O)[O-])cc1
#51 Cc1cccc(N2CC(C(=O)Nc3nnc(SCC(=O)NCC4CCCO4)s3)CC2=O)c1 (configuration not stated)
#52 CCOC(=O)C1=NN(c2ccc(C)cc2)C2(S1)SC(C(C)=O)=C(C)N2c1ccccc1 (configuration not stated)
compound no.	49	50	51	52
Pol eta inh	-21%	6%	20µM*	-1%
Pin1 inh	4%	1%	?	?
G9a block	35µM*	14µM*	11µM*	7%[0.501 µM]
JMJD2A Tudor	-14%	?	?	?
GLS inhibitor	-7%	?	-3%	2%
HP1b binding inh	7%	-21%	-3%	?
PGK inhibitor	-7%	-5%	i	-4%
PI4K2A inh	7	3	-14	-2
